High-throughput results: PubChem, National Center for Advancing Translational Sciences (NCATS)
StopGo FLuc – Primary qHTS Assay for Foot and Mouth Disease Virus Antivirals against NCGC Sytravon and CBC Compound Libraries: Firefly Luciferase Signal; actives 0.23% (n = 120,000); Potency, µM (doses to about 57.5 µM), without a hit: at the top dose signal change, negative = less light; HEK cells with a luciferase reporter of 2A StopGo recoding; active = well fitted falling curve with a large enough effect; inconclusive = small, poorly fitted or top-dose-only effect; inactive = no such curve, though single readings can be large or run the other way; also: nearly all actives have a fitted effect of over 60% in size; overnight with compound
StopGo RLuc – Primary qHTS Assay for Foot and Mouth Disease Virus Antivirals against NCGC Sytravon and CBC Compound Libraries: Renilla Luciferase Signal; actives 0.32% (n = 120,000); HEK cells with a luciferase reporter of 2A StopGo recoding; Potency, µM (doses to about 57.5 µM), without a hit: top-dose signal change, negative = less light; AID 1745857, 2022; active means well fitted falling curve with a large enough effect; inconclusive means small, poorly fitted or top-dose-only effect; inactive means no such curve, though single readings can be large or run the other way; also: nearly all actives have a fitted effect of over 55% in size; overnight with compound
* marks the source's active call; other numbers are inactive results; ? = inconclusive; & = joins results of further samples; [ ] = another dose, or the depositor's remark. % is scaled to controls: 0 for no effect and ±100 for the full control effect; potency is read from the fitted curve at half-maximal effect. Not a hit list; 0.55% or so of the library scored in one or more.

(1) Cc1cccc(-c2nc(CN3CCCC(C(=O)NCc4ccc(Cl)cc4)C3)c(C)o2)c1 (stereo not given)
(2) Cc1ccc(NC(=O)c2sc3nc(-c4ccc(C)cc4)ccc3c2N)cc1
(3) Cc1ccccc1-n1nc(C)c2c1NC(=O)CSC2c1ccc(Cl)cc1 (stereo not given)
(4) CCOC(=O)c1c(C)[nH]c(C)c1S(=O)(=O)N1CCCC(C(=O)Nc2ncccc2C)C1 (stereo not given)
(5) COc1ccc(C(=O)Nc2cc3c(cc2C(=O)c2ccc(C)cc2)OCCO3)cc1
(6) Cc1cc2oc(=O)cc(CN3CCN(c4ccc(F)cc4)CC3)c2cc1C
(7) CC(C)CNc1nc(C(=O)Nc2nnc(C(C)(C)C)s2)cs1
(8) O=C(NC1CCC(c2ccccc2)CC1)c1cccc2ncccc12 (stereo not given)

screen / no. | 1 | 2 | 3 | 4 | 5 | 6 | 7 | 8
StopGo FLuc | -13% | 0% | ? | -6% | 5% | -11% | 16% | -4%
StopGo RLuc | -12% | 7% | ? | 2% | 0% | -9% | -5% | -5%

(9) Cn1c(=O)c2c(nc(Br)n2Cc2ccccc2Cl)n(C)c1=O
(10) COc1ccc(C)cc1NC(=O)C1CCN(S(=O)(=O)Cc2ccccc2)CC1
(11) CNS(=O)(=O)c1ccc(NCCc2ccc(S(N)(=O)=O)s2)c([N+](=O)[O-])c1
(12) CCCCNC(=O)c1ccc2c(c1)N(Cc1ccc(F)cc1)C(=O)c1ccccc1S2=O (stereo not given)
(13) CCc1cccc2c(C(=O)CSc3nnc(C)s3)c[nH]c12
(14) Cc1ccc(C)c(NC(=O)C2CCCN2c2ncnc3ccccc23)c1 (stereo not given)
(15) CCCCc1cc(=O)oc2cc(OCC(=O)Nc3ccc(C(N)=O)cc3)ccc12
(16) Cc1ccc(NC(=O)CSc2ncc3c(n2)-c2ccccc2N(Cc2cccc(F)c2)S3(=O)=O)cc1F

screen / no. | 9 | 10 | 11 | 12 | 13 | 14 | 15 | 16
StopGo FLuc | 1% | -19% | 15% | -17% | 123%[activator] | -1% | -8% | -4%
StopGo RLuc | -3% | -7% | 3%[1.06 µM] | -8% | 4% | -15% | -17% | -16%

Rewritten with each value named: 4 of the compounds above
(15) CCCCc1cc(=O)oc2cc(OCC(=O)Nc3ccc(C(N)=O)cc3)ccc12
  StopGo FLuc: -8%
  StopGo RLuc: -17%

(11) CNS(=O)(=O)c1ccc(NCCc2ccc(S(N)(=O)=O)s2)c([N+](=O)[O-])c1
  StopGo FLuc: 15%
  StopGo RLuc: 3%[1.06 µM]

(12) CCCCNC(=O)c1ccc2c(c1)N(Cc1ccc(F)cc1)C(=O)c1ccccc1S2=O (stereo not given)
  StopGo FLuc: -17%
  StopGo RLuc: -8%

(14) Cc1ccc(C)c(NC(=O)C2CCCN2c2ncnc3ccccc23)c1 (stereo not given)
  StopGo FLuc: -1%
  StopGo RLuc: -15%

Next section
(17) O=C(CCc1ncc(-c2ccc(F)cc2F)o1)N1CCN(C(=O)C2CC2)CC1
(18) CC1=C(O[Si](C)(C)C)CC2C(=O)OC(=O)C2C1c1ccccc1 (stereo not given)
(19) CCC(OC(=O)c1nn(CC)c(=O)c2ccccc12)C(=O)Nc1cc(C)on1 (stereo not given)
(20) COc1ccc(NC(=O)CSc2nc3ccccc3n2CC(=O)N(C)c2ccc(F)cc2)cc1
(21) CC(C)(C)C(=O)Nc1cccc(NC(=O)C2CCCC2)c1
(22) NC(=S)NCc1ccc(F)cc1
(23) Cc1ccccc1CSc1nnc2[nH]c(=O)cc(-c3ccccc3)n12
(24) COc1ccc(C)cc1Nc1nc2ccccc2nc1NS(=O)(=O)c1ccc(Cl)cc1

screen / no. | 17 | 18 | 19 | 20 | 21 | 22 | 23 | 24
StopGo FLuc | 13% | 4% | -8% | -4% | 6% | -2% | 5%&-26% | 3%
StopGo RLuc | -3% | -8% | -10% | 38%[activator] | 3%[1.06 µM] | 6% | 2%&-10% | -5%

(25) Cc1nn(CC(=O)NCc2ccc(Cl)cc2)c(=O)c2cc3sccc3n12
(26) CCn1c(=O)c2ccccc2n(CC(=O)Nc2cnc3ccccc3c2)c1=O
(27) Cc1ccc2c(c1)C(c1ccccc1)N(C(=O)c1ccc(S(=O)(=O)N3CCCCC3)cc1)CC(=O)N2 (stereo not given)
(28) CCCN1C(=O)c2[nH]nc(-c3ccc(OC)cc3)c2C1c1ccccn1 (stereo not given)
(29) CCc1nc2n(n1)C1(CCCCC1)[C@@H]1CCCC[C@@H]1N2C(=O)C1CC1
(30) CC(=O)c1ccc(NC(=O)CC2C(=O)NCCN2C(=O)CN2CCN(CCO)CC2)cc1 (stereo not given)
(31) Cc1cccc(NC(=S)NNC(=O)c2ccc(Br)cc2)c1
(32) Cc1nc2ccc(C(=O)NCCC3CCCC3)cc2nc1C

screen / no. | 25 | 26 | 27 | 28 | 29 | 30 | 31 | 32
StopGo FLuc | 0% | 33%[activator] | -12% | 7% | ? | 3% | 0% | 162%[activator]
StopGo RLuc | -17% | -8% | -2% | 6% | ? | 0% | 16% | 12%

(33) O=C(NCC1(N2CCOCC2)CCCCC1)C1CCN(C(=O)c2ccc(F)cc2F)CC1
(34) Cc1ccc(C(C)C)c(OCC(O)Cn2cnc3c2c(=O)n(C)c(=O)n3C)c1 (stereo not given)
(35) Cn1c(=O)c2c(nc(Cl)n2CCOc2ccccc2)n(C)c1=O
(36) COc1cccc(/C=C(\C#N)c2ccc(Cl)cc2)c1OC(C)C
(37) COc1cccc(CNC(=O)c2cc3cccc4c3n2CC(C)S4)c1OC (stereo not given)
(38) C=C1CCC2C(C)(C)CCCC2(C)C1CC/C(C)=C\CC/C(C)=N/NC(N)=O (stereo not given)
(39) COc1ccc(C(C)=O)cc1CC(=O)NC(c1ccccc1)c1ccc(C)cc1 (stereo not given)
(40) CSc1nc(C(F)(F)F)cc(=O)[nH]1

screen / no. | 33 | 34 | 35 | 36 | 37 | 38 | 39 | 40
StopGo FLuc | -9% | 25µM* | 18% | 14% | -7% | -1% | -4% | 7%
StopGo RLuc | -14% | 25µM* | 6% | 4% | -7% | 5% | -7% | 19%

(41) CC(=O)c1ccc(Nc2ccc3cc(S(=O)(=O)N4CCCC4)ccc3n2)cc1
(42) Cc1ccccc1NC(=O)c1ccc(NC(=O)N2CCSc3ncccc32)cc1
(43) C=CCNC(=O)N(CCc1ccccn1)Cc1ccc(F)cc1
(44) CCc1ccc(C(=O)c2cn(CC(=O)Nc3ccc(OC)c(OC)c3)c3ccc(C)cc3c2=O)cc1
(45) COc1cccc(N2CCN(C(=O)CN3CCSc4ccc(S(=O)(=O)N(C)C)cc43)CC2)c1
(46) Cc1ccccc1NC(=O)Cn1c(=O)n(Cc2ccc3c(c2)OCO3)c(=O)c2ccccc21
(47) Cc1ccc(C)c(Cn2cnc3ccccc3c2=O)c1
(48) CCCOP(=O)(OCCC)c1nc(-c2ccccc2)oc1NC

screen / no. | 41 | 42 | 43 | 44 | 45 | 46 | 47 | 48
StopGo FLuc | 15%&5% | 27% | 12% | -19% | -16% | -17% | 13% | 16%
StopGo RLuc | 67%&78%[activator] | -11% | 5% | -7% | 1% | -6% | 20% | 34%[activator]

(49) CCCCNC(=O)c1ccc2c(c1)NC(=O)C(CS(=O)(=O)Cc1ccc(C)cc1)N2 (stereo not given)
(50) CCOC(=O)c1cn[nH]c1S(=O)(=O)N1CCCCCCC1
(51) C=CCn1c(Sc2ncccn2)nc2c1c(=O)[nH]c(=O)n2C
(52) CCOc1cc(CNc2nn[nH]n2)ccc1OCc1ccccc1Cl
(53) FC(F)(F)c1ccc(SCc2nc3ccccc3s2)nc1
(54) O=C(NCCc1csc(-c2ccc(F)cc2)n1)c1cccc(F)c1
(55) CN(Cc1ccc(C(F)(F)F)cc1)C(=O)CCn1cnc2c1c(=O)n(C)c(=O)n2C
(56) O=C1Nc2ccccc2Oc2cc(Oc3ccccc3)ccc21

screen / no. | 49 | 50 | 51 | 52 | 53 | 54 | 55 | 56
StopGo FLuc | -12% | -10% | -10% | 19% | 183%[activator] | ? | 27% | 13%
StopGo RLuc | -15% | -5% | -10% | 6% | 0% | ? | 10% | 25%

(57) O=C(NCC(=O)N(Cc1ccsc1)C1CC1)c1ccccc1
(58) CC(C)Oc1ccc(C(=O)N2CCN(c3nc4c(F)cc(F)cc4s3)CC2)cc1
(59) CCOc1ccc(NC(=O)Cn2c(C)cc(=O)n3nc(-c4cccs4)nc23)cc1
(60) CCOC(=O)c1c(C)n(-c2ccccc2)c2ccc(OC(=O)c3c(F)cccc3F)cc12
(61) Cc1ccc2cc(C(=O)N(C)Cc3ccc(C)o3)[nH]c2c1
(62) CCCNC(=O)c1cc2cc(N(C)S(C)(=O)=O)ccc2s1
(63) Clc1ccc(-c2csc(NC3CC3)n2)cc1Cl
(64) N#Cc1ccc(COC(=O)C2(c3ccccc3)CCCC2)cc1

screen / no. | 57 | 58 | 59 | 60 | 61 | 62 | 63 | 64
StopGo FLuc | 0% | -2% | -5% | 10% | 151%[activator] | 65%[activator] | 139%[activator] | 13%
StopGo RLuc | 6% | -8% | -10% | 8% | 63%[activator] | -28% | -25% | 14%

(65) COc1ccc(NS(=O)(=O)c2ccc3c(c2)[C@H]2C=CC[C@H]2[C@@H](c2ccc(C(=O)O)cc2)N3)cc1
(66) O=C(Nc1ccc(F)cc1)c1ccc[n+]([O-])c1
(67) Cc1cccc(-c2nnn3c2nc(NCCc2ccc(S(N)(=O)=O)cc2)c2ccccc23)c1
(68) CCOc1ccccc1-n1nnc(-c2nsc(NC(=O)c3ccc(C)cc3)n2)c1C
(69) Cc1ccccc1C(=O)c1ccccc1
(70) NC(N)=Nc1nc(-c2ccc3ccccc3c2)cs1
(71) COc1ccc(-c2nc(SCC(=O)NCC3CCCO3)c(-c3ccc(C)cc3)[nH]2)cc1OC (stereo not given)
(72) O=C(CC12CC3CC(CC(O)(C3)C1)C2)Nc1ccc2c(c1)Cc1ccccc1-2

screen / no. | 65 | 66 | 67 | 68 | 69 | 70 | 71 | 72
StopGo FLuc | -24% | 14% | 29% | 7% | 2% | 202%[activator] | -5% | 59%[activator]
StopGo RLuc | 0% | 3% | 9% | 3% | 12% | 13% | 3% | 24%

(73) Cc1ccc(C(C)C)c(OCC(=O)N2CCC(c3nc4ccccc4o3)CC2)c1
(74) CCC(CC)COC(=O)C(C#N)c1nc2ccccc2nc1N1CCN(C)CC1 (stereo not given)
(75) Nc1nccnc1C(=O)NCc1ccncc1
(76) Cn1ccnc1Sc1nc2c(c(=O)n(C)c(=O)n2C)n1Cc1c(Cl)cccc1Cl
(77) Nc1cccc(OCC2CCCO2)c1 (stereo not given)
(78) CC(C)c1cc(N2CCN(CCO)CC2)n2c(nc3ccccc32)c1C#N
(79) COc1ccc(N2CCN(C(=O)c3cnn(-c4ccc(OC)cc4)c3C3CCN(C(=O)OC(C)(C)C)CC3)CC2)cc1
(80) Cc1cccc(CS(=O)(=O)CC2Nc3ccc(C(=O)NCc4ccccc4)cc3NC2=O)c1 (stereo not given)

screen / no. | 73 | 74 | 75 | 76 | 77 | 78 | 79 | 80
StopGo FLuc | 7%&-22% | -16% | 3% | 6% | 0% | -2% | -7% | -3%
StopGo RLuc | 12%&-1% | -19% | 2% | 0% | 11% | 11% | 0% | 2%

(81) CCOC(=O)NCc1ccc(Cl)cc1
(82) Cc1ccc2c(COC(=O)c3cc(S(=O)(=O)N(C)C)ccc3N3CCOCC3)cc(=O)oc2c1
(83) CCCCCCCCCCCCCC(=O)OC(C)C
(84) Cc1ccccc1C(=O)N1CCN(Cc2cccc3cccnc23)CC1
(85) N[C@@H]1CONC1=O
(86) CCc1cccc(C)c1NC(=O)C(C)n1c2ccccc2c2nc(=O)cc(C)n21 (stereo not given)
(87) O=C1c2ccccc2-c2cc(NCc3ccccc3)nc3cccc1c23
(88) CCCCOc1ccc(CNC(=O)c2cccc(NC(=O)N3CCSc4ncccc43)c2)cc1
(89) CNC(=O)NC(=O)CN(C)C1CCCC1
(90) COc1ccc(Nc2nc(N3CCN(c4ccccc4)CC3)c3nccnc3n2)cc1

screen / no. | 81 | 82 | 83 | 84 | 85 | 86 | 87 | 88 | 89 | 90
StopGo FLuc | ? | -2% | 0%[11.5 µM] | -4% | 16%[11.5 µM] | -11% | 6% | -15% | 2% | 132%[activator]
StopGo RLuc | -9%[1.06 µM] | 11% | -4% | -16% | -1% | -7% | -7% | -24% | -13% | 43%[activator]

A different layout for part of the listing above.
81	CCOC(=O)NCc1ccc(Cl)cc1
  StopGo FLuc: ?; StopGo RLuc: -9%[1.06 µM]

82	Cc1ccc2c(COC(=O)c3cc(S(=O)(=O)N(C)C)ccc3N3CCOCC3)cc(=O)oc2c1
  StopGo FLuc: -2%; StopGo RLuc: 11%

83	CCCCCCCCCCCCCC(=O)OC(C)C
  StopGo FLuc: 0%[11.5 µM]; StopGo RLuc: -4%

84	Cc1ccccc1C(=O)N1CCN(Cc2cccc3cccnc23)CC1
  StopGo FLuc: -4%; StopGo RLuc: -16%
